From PubChem
Cruzain inh noDet: blocks cruzain activity in detergent-free assay; purified cruzain, Z-FR-AMC fluorescence, no detergent; hit rate 2.3% among 200,000; Potency, µM, without a hit: max response, negative = inhibition, actives largely listed as inhibitors; active = well fitted curve in the direction sought with a large enough effect; inconclusive = small, poorly fitted or top-dose-only effect, or another doubt; inactive = no such curve, though single readings can be large; an effect the other way counts as inactive or inconclusive;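 also: plate controls were enzyme without inhibitor for no effect and buffer without enzyme for full effect; nearly all actives have a fitted effect of over 40% in size; top concentration of the series not given in the record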
Target sequence (P25779 123-467 limits assumed): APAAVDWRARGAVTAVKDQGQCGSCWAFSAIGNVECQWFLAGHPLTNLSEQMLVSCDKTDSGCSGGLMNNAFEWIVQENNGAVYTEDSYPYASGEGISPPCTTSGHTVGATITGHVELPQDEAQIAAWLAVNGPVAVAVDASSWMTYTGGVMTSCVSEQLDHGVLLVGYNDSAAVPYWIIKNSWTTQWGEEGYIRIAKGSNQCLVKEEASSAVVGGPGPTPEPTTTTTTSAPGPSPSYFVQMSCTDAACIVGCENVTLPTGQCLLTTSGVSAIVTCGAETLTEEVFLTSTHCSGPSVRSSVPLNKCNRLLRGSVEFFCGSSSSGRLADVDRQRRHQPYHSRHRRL
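Detergent-free condition (0.00005% Triton X-100) in acetate buffer pH 5.5 with DTT. 1.5 nM enzyme and compound were pre-mixed 15 min, then 2 uM Z-FR-AMC substrate added; reaction progress from fluorescence change between first and third reads (60 s).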
RE007 growth inh: less growth of the S. pombe RE007 Vpr strain; S. pombe RE007 Vpr strain, BacTiter-Glo ATP luminescence, 24 h; control for the full effect not named in the record; Potency, µM (titrated, usually from 92.2 µM), for inactives: top-dose activity change, negative = less growth; hit rate 0.21% among 360,000; AID 651644; active = well fitted falling curve with a large enough effect; inconclusive = small, poorly fitted or top-dose-only effect; inactive = no such curve, though single readings can be large or run the other way;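 also: % is scaled to controls: 0 for no effect and ±100 for the full control effect; nearly all actives have a fitted effect of over 50% in size; the assay follows cell death caused by Vpr and the record does not say whether a fall means rescue or toxicity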
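Fission yeast RE007 carrying one integrated HIV-1 vpr copy, seeded at OD 0.01 in PMG+AL medium with 23 nL pinned compound. Grown 24 h at 30 degrees; viability read by BacTiter-Glo luminescence after 5 min.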
LASV entry inh: Lassa virus entry inhibition. Lassa virus pseudotype entry inhibition, cell reporter; control for the full effect not named in the record. Potency, µM (series often up to 37.9 µM), for the others: top-dose activity change, negative = inhibition, usual class: inhibitors. hit rate 1.2% among 300,000. AID 540256; active means well fitted inhibition curve with a large enough effect; inconclusive means small, poorly fitted or top-dose-only effect, or effect the other way; inactive means flat fitted curve, though single readings scatter; tested in HEK293 cells; also: % is scaled to controls: 0 for no effect and ±100 for the full control effect; nearly all actives have a fitted effect of over 50% in size; luciferase read-out
StopGo reporter: lowers the luciferase signal of an FMDV 2A StopGo reporter | human cells with a luciferase reporter of 2A StopGo recoding; control for the full effect not named in the record | Potency, µM (top dose mostly 57.9 µM), inactives show at the top dose signal change, negative = less light | hit rate 1.2% among 410,000 | AID 1159524; active = well fitted falling curve with a large enough effect; inconclusive = small, poorly fitted or top-dose-only effect; inactive = no such curve, though single readings can be large or run the other way; tested in HEK293T cells; also: % is scaled to controls: 0 for no effect and ±100 for the full control effect; nearly all actives have a fitted effect of over 45% in size; luciferase light after 4 h
SARS PLP yeast: SARS-CoV PLP inhibition in yeast; S. cerevisiae expressing SARS-CoV PLpro, growth rescue; control for the full effect not named in the record; Potency, µM (doses to about 32.9 µM), inactives show top-dose activity, positive = growth rescue; hit rate 0.19% among 330,000; AID 485353; also: 0% is about no effect; nearly all actives have a fitted effect of over 55% in size; growth read by luminescence after 48 h
MARV entry inh: inhibitors of Marburg virus binding or cell entry. Marburg virus pseudotyped entry inhibition, cell reporter; control for the full effect not named in the record; about a third of the inactives were read at about 46 µM. hit rate 1.8% among 300,000. Potency, µM (top dose mostly 37.8 µM), for the others: at the top dose activity change, negative = inhibition, most hits filed as inhibitors; active = well fitted inhibition curve with a large enough effect; inconclusive = small, poorly fitted or top-dose-only effect, or effect the other way; inactive = flat fitted curve, though single readings scatter; tested in HEK293 cells; about a fifth of its hits are not listed in these tables; also: % is scaled to controls: 0 for no effect and ±100 for the full control effect; luciferase read-out
NS1 function inh: inhibitors of influenza NS1 protein function; S. cerevisiae slowed by influenza A NS1, growth recovery by OD600; Potency, µM (highest dose often 46.1 µM), for inactives: top-dose activity, positive = more growth; hit rate 0.4% among 270,000; AID 2326; also: actives are rising curves; nearly all actives have a fitted effect of over 50% in size
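Read-out: OD600 growth recovery of NS1-expressing budding yeast. Cells grown overnight at 30C in -URA glucose medium, washed, resuspended and diluted 1:100 in 2% galactose assay medium, pH 6.0. Same strain lacking NS1 served as positive control.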
Cruzain Triton: inhibitors of Trypanosoma cruzi cruzain with detergent; purified cruzain, Z-FR-AMC fluorescence, 0.01% Triton; Potency, µM, for the others: max response, negative = inhibition, usual class: inhibitors; hit rate 0.43% among 200,000; active = well fitted curve in the direction sought with a large enough effect; inconclusive = small, poorly fitted or top-dose-only effect, or another doubt; inactive = no such curve, though single readings can be large; an effect the other way counts as inactive or inconclusive;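 also: plate controls were neutral wells for no effect and buffer without enzyme for full effect; nearly all actives have a fitted effect of over 40% in size; top concentration of the series not given in the record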
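Detergent-containing arm of a paired screen for aggregation-based inhibition: 0.01% Triton X-100 present. Cruzain at 1.5 nM cleaved 2 uM Z-FR-AMC at pH 5.5 with 5 mM DTT; AMC fluorescence gain over 60 s measured activity.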
* hit, by the source's call; ? = inconclusive; nt = no result given; & = joins results of further samples; [ ] = dose if it differs, or a comment. Unless noted, calls follow the shape of the dose curve; as a rule, active means well fitted rising curve with a large enough effect; inconclusive means small, poorly fitted or top-dose-only effect; inactive means no such curve, though single readings can be large or run the other way. Potency is read from the fitted curve at half-maximal effect.

SMILES	Cruzain inh noDet	RE007 growth inh	LASV entry inh	StopGo reporter	SARS PLP yeast	MARV entry inh	NS1 function inh	Cruzain Triton
COc1cccc(/C=N/NC(=O)c2ccncc2)c1OC(=O)c1ccc(Br)cc1	nt	21%	?	-15%	-2%	?	-8%	nt
COc1ccc(NC(=O)CSc2nnc3ccc(-c4ccccn4)nn23)c(OC)c1	nt	12%	9%	-18%	2%	-1%	nt	nt
CCOC(=O)c1nn(-c2ccc(OCC)cc2)c(C)c1C(C)=O	12%	24%	5%	-39%	?	0%	-15%	0.4%
O=C1C2CC=CCC2C(=O)N1c1nc2n(n1)C(c1ccccc1)CC(c1ccccc1)N2 (stereo not drawn)	?	-2%	11%	-22%	7%	3%	-17%	-3.2%
COc1ccccc1N1CCN(C(=O)C2CCN(S(=O)(=O)c3ccc(Cl)cc3)CC2)CC1	?	-10%	?	-29%	6%	-27%	-5%	-1.9%
O=C(O)c1ccc([N+](=O)[O-])cc1Sc1ccsc1	nt	5%	-1%[46.1 µM]	-21%	nt	?	nt	nt
Cn1nnc(NC(=O)c2cccc(OCc3ccccc3)c2)n1	5%	23%	-25%	12%	-5%	7%	-17%	-4.2%
Cn1nc(C(=O)Nc2c(-c3ccccc3)nc3sccn23)c2ccccc2c1=O	6%	-1%	?	-1%	1%	?	1%	0.4%
Cc1nc(N2CCOCC2)[nH]c(=O)c1C(O)C(Cl)(Cl)Cl (stereo not drawn)	nt	0%	nt	-18%	-1%	3%	1%	nt
Cc1ccc2nc(SCC(=O)Nc3ccc4c(c3)OCCO4)nc(=O)n2c1	nt	6%	16%	8%	-2%	?	nt	nt
O=C(CSc1ncn[nH]1)c1ccccc1	-5%	5%	14%	-22%	-5%	5%	-3%	-2.1%
O=C(O)CCn1cc(C=C2C(=O)NC(=S)NC2=O)c(-c2cccc(Br)c2)n1	nt	-17%	2%	4%	1%	?	1%	nt
O=C(NCC1CCCN1S(=O)(=O)c1cccs1)c1cccc([N+](=O)[O-])c1 (stereo not drawn)	nt	-17%	-1%	-9%	17%	-28%	nt	nt
COCCNC(=O)C12CC3CC(CC(Cl)(C3)C1)C2	nt	2%	17%	-13%	-2%	4%	1%	nt
COc1ccc(NC(=O)c2sc3nc[nH]c(=O)c3c2C)cc1Cl	-4%	nt	-19%[46.1 µM]	14%	nt	nt	nt	-0.5%
Cc1cc(=O)oc2cc(OCC(=O)OCc3nnc(-c4ccccc4)o3)ccc12	-4%	-1%	6%	-1%	-4%	?	-43%	-3.5%
CC(C)NS(=O)(=O)c1ccc(OCC(=O)NC(C)c2ccccc2)cc1 (stereo not drawn)	nt	-19%	-1%	6%	0%	-8%	4%	nt
CCCSc1nc2c(=O)[nH][nH]c(=O)c2n1Cc1ccccc1	-9%	1%	19%	-18%	-6%	2%	13%	-1.2%
COc1cc(/C=C(\C#N)c2nc3ccc(C)cc3[nH]2)ccc1OCc1ccc(C)cc1	-3%	nt	?	0%	nt	nt	nt	-0.3%
NC(=O)c1cc(NC(=O)CCNS(=O)(=O)c2cccc(C(F)(F)F)c2)cc(C(N)=O)c1	nt	-30%	6%	13%	5%	0%[46.1 µM]	9%	nt
C=CCn1c(SCC(=O)Nc2cccc(OC)c2)nnc1-c1cccnc1	-8%	-1%	nt	-3%	0%	nt	-12%	-0.4%
CCn1cc(CNC(=O)C2CCC(=O)N(C3CCCCCC3)C2)cn1 (stereo not drawn)	nt	6%	-2%	6%	8%	10%	-6%	nt
Cc1cc2ncn(-c3nnnn3-c3ccccc3)c2cc1C	-11%	6%	-1%	-20%	1%	-14%	-2%	-2.4%
CCOc1sc2nc(C)n(CC(=O)Nc3cccc(C)c3)c(=O)c2c1C	3%	nt	-4%[46.1 µM]	-12%	nt	?	nt	5.2%
Cc1sc2nc(SCC(=O)N3CCOCC3)[nH]c(=O)c2c1C	-4%	4%	nt	5%	2%	nt	-21%	-6.7%
Cc1ccccc1NC(=O)COc1coc(CN2CCN(Cc3ccccc3)CC2)cc1=O	nt	4%	-21%	?	-4%	-20%	nt	nt
CCOC(=O)C1=C(CSc2nc3c(cc2C#N)CN(C)CC3)OC(N)=C(C#N)C1c1ccccc1 (stereo not drawn)	-6%	-3%	8%	-27%	-6%	?	9%	-0.8%
Cc1cc(N2C(=O)C3C4CC(c5ccccc5)C(C4)C3C2=O)no1 (stereo not drawn)	nt	2%	2%	-7%	1%	?	-4%	nt
Cc1c(Cl)cccc1-n1c(-c2cccnc2)n[nH]c1=S	nt	-9%	nt	-11%	1%	nt	12%	nt
COc1cccc(Nc2nc3ccccc3nc2-n2nc(C)cc2C)c1	-25%	-2%	nt	-6%	0%	nt	6%	-10%
CCC(C)NC(=O)C(=O)NC1CCCC1 (stereo not drawn)	1%	5%	2%	29%	-1%	?	9%	-3.1%
O=C(O)COc1c(Cl)cc(/C=C2/NC(=O)NC2=O)cc1Br	nt	-1%	-5%	29%	2%	-32%[46.1 µM]	nt	nt
O=C1/C(=C/c2cccnc2)N=C2CCCCCN12	nt	15%	nt	12%	3%	nt	?	nt
CCOc1cc(/C=C2\C(=O)ON=C2c2ccccc2)cc(Br)c1O	nt	-8%	-3%	11µM*	-6%	2%[46.1 µM]	-2%	nt
Cn1c(CNC(=O)CNS(=O)(=O)c2ccccc2)cc(=O)n(C)c1=O	nt	18%	4%[46.1 µM]	-6%	-2%	?	4%	nt
Cc1cc(Cl)ccc1OCCCC(=O)NCc1ccncc1	5%	-6%	9%	-6%	-7%	-3%	3%	3.5%
CCOC(=O)C1CCN(C(=S)Nc2cccc(C)c2C)CC1	-18%	-8%	10%	-9%	3%	-5%	-9%	-0.7%
C=CCN(CC=C)C(=S)NC(=O)/C=C/c1ccccc1	12%	-18%	-1%	15%	2.8µM*	-1%	17%	0.1%
O=C(CN1c2cccc3cccc(c23)S1(=O)=O)NCCc1ccccc1	nt	1%	9%	-15%	?	-1%	nt	nt
O=C(NCC1CCCO1)c1cc(-c2ccccc2)nc2ccc(Br)cc12 (stereo not drawn)	nt	-10%	-18%	6%	-1%	1%	0%	nt
O=[N+]([O-])c1ccc2[nH]c3c(c2c1)CCCC3O (stereo not drawn)	nt	1%	10%	-8%	-4%	?	1%	nt
COc1ccc(NC(=S)N2CCN(S(C)(=O)=O)CC2)cc1OC	nt	7%	-15%	0%	1%	2%	-1%	nt
Cc1cccc(NC(=O)NC(=O)c2ccccc2)n1	nt	9%	17%	62%[activator]	-8%	?	nt	nt
Cc1noc2ncnc(N3CCCC(C(=O)Nc4cc(F)ccc4F)C3)c12 (stereo not drawn)	5%	nt	14%[46.1 µM]	?	nt	nt	nt	-0.8%
Cc1c(C(=O)N(Cc2ccc(N(C)C)cc2)CC2CCCO2)oc2ccccc12 (stereo not drawn)	1%	-23%	-20%[46.1 µM]	2%&10%	-11%	?	-41%	-5.0%
Cc1nn(-c2ccccc2)cc1C(=S)Nc1ccccc1	-8%	9%	?	32%[activator]	-3%	?	-4%	-8.0%
COc1ccc(OC)c(N/C(C)=C/C(=O)c2ccccc2)c1	-8%	6%	26%	10%	9%	?	0%	-8.9%
CNc1ccccc1C(C)(C)c1cc(-c2cccc(OC)c2)no1	nt	59%	-27%[46.1 µM]	?	-3%	?	nt	nt
CCOc1ccc(S(=O)(=O)N2CCC(C(=O)NC3CCCC3)CC2)cc1	nt	7%	0%	-26%	2%	0%	3%	nt
CC12CCC(=O)N1C(C(=O)Nc1nc(-c3cc(F)ccc3F)cs1)CS2 (stereo not drawn)	nt	1%	?	?	4%	-18%[46.1 µM]	nt	nt
C/C(=N\NC(=O)c1ccco1)c1cccc2ccccc12	nt	3%	13%	9%	0%	-6%[46.1 µM]	-6%	nt
COc1ccc(CCNc2ncnc3c2cnn3-c2ccc(F)cc2)cc1	-12%	nt	2%[46.1 µM]	0%	nt	nt	nt	-1.3%
NC(=O)c1nsc(C(=O)N(c2ccccc2)C(C(=O)NCC2CCCO2)c2ccc3ncccc3c2)c1N (stereo not drawn)	nt	-13%	nt	-21%	3%	3%[46.1 µM]	-15%	nt
CCC(=O)N1c2ccc(S(=O)(=O)NCCc3ccc(C)cc3)cc2CC1C (stereo not drawn)	nt	22%	?	33%[activator]	3%	1%[46.1 µM]	-29%	nt
COc1cccc(C(=O)NC(c2ccc(Cl)cc2)c2cc(Cl)c3cccnc3c2O)c1 (stereo not drawn)	-5%	nt	?	-12%	nt	nt	nt	3.1%
Cc1cc(C)nc(N2CCC(C(=O)NC3CCCCCC3)CC2)n1	nt	2%	15%	7%	nt	2%	-8%	nt
COc1ccc(N2CCN(C(=O)CNC(=O)c3cccs3)CC2)cc1	nt	21%	nt	0%	6%	nt	-12%	nt
CCOC(=O)C(C)Sc1nc2c(c(-c3cccs3)c1C#N)CCC2 (stereo not drawn)	-18%	4%	-8%	-9%	-2%	?	-9%	-4.9%
Cc1ccsc1C(=O)N1CCN(c2ccccn2)CC1	nt	-19%	nt	-8%	3%	nt	-21%	nt
Cc1ncc(CSc2ccc(Cl)cc2)c(CO)c1O	nt	2%	4%	-27%	0%	-2%	0%	nt

Next section:
SMILES	Cruzain inh noDet	RE007 growth inh	LASV entry inh	StopGo reporter	SARS PLP yeast	MARV entry inh	NS1 function inh	Cruzain Triton
CSc1ccc(S(=O)(=O)N2CCCC2)cc1	-1%	6%	1%	22%	4%	-11%	11%	0.0%
Cc1cc(NC2=CC(=O)C(=O)c3ccccc32)no1	nt	-28%	?	?	nt	?	nt	nt
CN(/N=C/c1ccc2c(c1)OCO2)c1nc(N2CCOCC2)nc(N2CCOCC2)n1	nt	10%	24%	-17%	-7%	-8%[46.1 µM]	nt	nt
O=C(NC1CCCCC1)C(c1ccccc1F)N(Cc1ccco1)C(=O)Cn1nnc2ccccc21 (stereo not drawn)	-24%	11%	-9%	-6%	1%	-12%	-3%	5.5%
COc1cccc(CNC(=O)c2cc3c(=O)n(Cc4cccnc4)ccc3nc2C)c1	27%	nt	?	-14%	nt	nt	nt	-1.0%
